# Compound activity: PubChem, National Center for Advancing Translational Sciences (NCATS)
# Vaccinia mCherry: qHTS for Stage-Specific Inhibitors of Vaccinia Orthopoxvirus: mCherry Reporter Primary qHTS. Potency, µM (series often up to 36.5 µM), without a hit: top-dose activity change, negative = inhibition, usual class: inhibitors. 0.63% of 310,000 active. Vaccinia virus mCherry reporter infection, fluorescence; about a quarter of the inactives have no number. AID 720579, 2013; active = well fitted inhibition curve with a large enough effect; inconclusive = small, poorly fitted or top-dose-only effect; inactive = no such curve, though single readings can be large or run the other way; tested in A549 cells; also: nearly all actives have a fitted effect of over 35% in size; inactives centre near -10
# Vaccinia Venus: qHTS for Stage-Specific Inhibitors of Vaccinia Orthopoxvirus: Venus Reporter Primary qHTS; Potency, µM (doses to about 36.5 µM), inactives show top-dose activity change, negative = inhibition, most hits filed as inhibitors; Vaccinia virus Venus reporter expression, fluorescence; 0.46% of 330,000 active; AID 720580, 2013; active means well fitted inhibition curve with a large enough effect; inconclusive means small, poorly fitted or top-dose-only effect; inactive means no such curve, though single readings can be large or run the other way; tested in A549 cells; also: nearly all actives have a fitted effect of over 30% in size; inactives centre near -10
# * marks the source's active call; other numbers are inactive results; i = inactive; u = inconclusive; x = no result given; & = joins results of further samples; [ ] = remark or other dose. % is scaled to controls: 0 for no effect and ±100 for the full control effect; potency is read from the fitted curve at half-maximal effect. Compounds were not picked by outcome; any-hit rate near 0.82%.
SMILES,Vaccinia mCherry,Vaccinia Venus
O=C1CC(c2ccccc2)Cc2[nH]c(=O)c(-c3nc(-c4cccc(Cl)c4)cs3)cc21 (stereo not given),-14%,-28%
Cc1cccc(NC(=O)CSc2nc3c(c(=O)[nH]2)CCCC3)c1C,-12%,-3%
CC1=CC(c2ccc(Cl)cc2)n2nc(NC(=O)CCCC(=O)O)nc2N1 (stereo not given),0%,-14%
S=C(NCCCN1CCOCC1)Nc1ccc(Cl)c(Cl)c1,-4%,-12%
CCN(CC)C(=O)c1cnn(-c2ccc(F)cc2)c1-n1cccc1,-11%,-7%
CC[C@@]1(C(=O)OC)N[C@H](CN(C)C(=O)Nc2ccccc2)[C@@H]2C(=O)N(Cc3ccccc3)C(=O)[C@@H]21,-1%,-6%
COc1ccc(C2CC(=O)c3cnn(-c4nc(C)cc(C)n4)c3C2)cc1OC (stereo not given),-11%,-2%
CC1CC(=O)c2cc(-c3ccccc3)oc2C1 (stereo not given),-5%,-11%
O=c1oc2ccccc2cc1-c1csc(NN=C2CCCCC2)n1,i,-11%
Nc1cc(Cl)ccc1N1CCCCC1,-2%,-4%
O=C(Nc1cccc(C(=O)NC2CCCCC2)c1)c1ccccc1,i,0%
S=C(NCC1CCCCC1)Nc1cccnc1,0%,-14%
CCC(=O)c1ccc(OCC(O)CNCc2ccc(F)cc2)cc1 (stereo not given),-14%,-15%
COc1ccccc1OCCNC(=O)C1CCN(C(C)=O)CC1,6%,-3%
CCCCN(CC)CCCNC(=O)C1CCN(c2ncnc3c2sc2cccc(F)c23)CC1,-30%,-18%
CCOC(=O)N1CCN(C2=C(NS(=O)(=O)c3ccccc3)C(=O)c3ccccc3C2=O)CC1,u,-19%
O=C(C1=C(O)C(=O)N(CCc2ccccc2)C1c1cccnc1)c1ccco1 (stereo not given),-3%,2%
Cc1ccc(NC(=O)Cc2coc3c(C)c(C)ccc23)cc1Cl,-14%,-16%
Cc1ccc(C(=O)Nc2nc(-c3ccccc3)c(-c3ccccc3)o2)cc1,-22%,-7%
O=C(NCc1ccc2c(c1)OCO2)c1cc(-c2ccccc2)nn1CC1CC(c2cccnc2)=NO1 (stereo not given),i,-11%
O=C(CN1CCN(Cc2ccccc2Cl)CC1)N/N=C/c1cccs1,-16%[7.34 µM],-5%[7.34 µM]
COCCNC(=S)N1CCN(c2nc(-c3ccc(Cl)cc3)cs2)CC1,u,-15%
O=C1CSC(c2ccccn2)N1c1ccccc1 (stereo not given),-7%,-3%
CCCN(CCC)S(=O)(=O)c1ccc(NC(=O)c2cc(C(=O)OC)cc([N+](=O)[O-])c2)cc1,-24%,u

# Rewritten bar-delimited: 13 of the compounds above
molecule | Vaccinia mCherry | Vaccinia Venus
O=c1oc2ccccc2cc1-c1csc(NN=C2CCCCC2)n1 | i | -11%
Nc1cc(Cl)ccc1N1CCCCC1 | -2% | -4%
O=C(Nc1cccc(C(=O)NC2CCCCC2)c1)c1ccccc1 | i | 0%
S=C(NCC1CCCCC1)Nc1cccnc1 | 0% | -14%
CCC(=O)c1ccc(OCC(O)CNCc2ccc(F)cc2)cc1 (stereo not given) | -14% | -15%
COc1ccccc1OCCNC(=O)C1CCN(C(C)=O)CC1 | 6% | -3%
CCCCN(CC)CCCNC(=O)C1CCN(c2ncnc3c2sc2cccc(F)c23)CC1 | -30% | -18%
CCOC(=O)N1CCN(C2=C(NS(=O)(=O)c3ccccc3)C(=O)c3ccccc3C2=O)CC1 | u | -19%
O=C(C1=C(O)C(=O)N(CCc2ccccc2)C1c1cccnc1)c1ccco1 (stereo not given) | -3% | 2%
Cc1ccc(NC(=O)Cc2coc3c(C)c(C)ccc23)cc1Cl | -14% | -16%
Cc1ccc(C(=O)Nc2nc(-c3ccccc3)c(-c3ccccc3)o2)cc1 | -22% | -7%
O=C(NCc1ccc2c(c1)OCO2)c1cc(-c2ccccc2)nn1CC1CC(c2cccnc2)=NO1 (stereo not given) | i | -11%
O=C(CN1CCN(Cc2ccccc2Cl)CC1)N/N=C/c1cccs1 | -16%[7.34 µM] | -5%[7.34 µM]

# (cont.)
SMILES,Vaccinia mCherry,Vaccinia Venus
CCOc1ccc(-n2c(SCC(=O)N3CCCCC3)nc3c([nH]c4ccccc43)c2=O)cc1,-5%,-1%
CN1OC[C@@H]2CN(C(=O)Cc3ccccc3)[C@H](c3ccccc3Br)C[C@@H]21,i,-14%
CCOc1ccccc1N1CC(c2nc3ccccc3n2CCOc2ccccc2)CC1=O (stereo not given),i,-11%
COC(=O)c1c(NC(=O)Cc2ccccc2)sc2c1CC(C)(C)NC2(C)C,-27%,-25%
CCCCN1CCC(O)(c2ccccc2)C(C(=O)c2ccccc2)C1 (stereo not given),i,-3%
COc1ccc(-c2ccc(-c3noc(C(C)C)n3)c(OC)n2)cc1,x,-14%
Cn1c(=O)c2cc(NC(=O)NCc3ccc(F)cc3)ccc2n1C/C=C/c1ccccc1,u,-23%
Fc1cccc(Cc2c(C3CCCCC3)nc3c4ccccc4ccn23)c1,4%,4%
COc1ccccc1NS(=O)(=O)c1ccc(C(=O)N2CCN(c3ccccn3)CC2)cc1,u,-22%
COc1cccc(N(CC(=O)NCC2CCCO2)C(=O)CCC(=O)Nc2nccs2)c1 (stereo not given),0%,5%
CCOC(=O)c1sc(NC(=O)c2nc(SC)ncc2Cl)c(C(=O)OCC)c1C,1%,13%
O=C(CSc1nc(-c2ccccc2)cc(=O)[nH]1)NCc1ccc2c(c1)OCO2,-9%,-13%
CCCN(Cc1cccs1)C(=O)Nc1ccc(Br)c(C)c1,-4%,-9%
COc1ccc(-n2c(=O)c3sc4ccccc4c3n(CC(=O)NCc3ccccc3)c2=O)cc1,-6%,2%
O=C(c1cc(-c2cccnc2)nc2ccc(Cl)cc12)N1CCC2(CC1)OCCO2,x,-2%
COc1ccc(S(=O)(=O)NCCc2nnc3ccc(SCC(=O)Nc4ccc(C(F)(F)F)cc4)nn23)cc1,0%,-4%
CCOC(=O)C1=CCC(c2ccco2)N(S(=O)(=O)c2ccc(C)cc2)C1 (stereo not given),17%,1%
COc1ccc(OC)c(S(=O)(=O)N2CCC(C(=O)N3CCN(c4ccc(F)cc4)CC3)CC2)c1,-17%,-15%
Cc1ccc(OCc2nnc(SCC(=O)NC3CCCCC3)n2C)cc1,-20%,-16%
Cc1cc2c(SCC(=O)NCC3CCCO3)ncnc2s1 (stereo not given),-13%,-17%
Cc1n[nH]c(=O)nc1N/N=C/c1cccs1,-27%,-23%
C=CCSc1nc2c(c(=O)[nH]1)C(C(C)C)C(C#N)=C(N)O2 (stereo not given),5%,2%
Clc1ccc(-c2nnc(-c3ccccc3)o2)cn1,-19%,-11%
Cc1c(Cl)cccc1NC(=O)Cn1nnc(C(=O)NCc2cccs2)c1N,-6%,-14%
CSc1nnnn1-c1ccc(C)c(Cl)c1,-9%,-8%
CCCc1nc(NCc2ccco2)c(C#N)c2c1COC(C)(C)C2,x,-4%
O=C(Nc1cc(Sc2nc3ccccc3s2)cc([N+](=O)[O-])c1)c1cccc(F)c1F,u,u
CN(C)CCNC(=O)C(=O)NCC(c1cccnc1)N1CCN(c2ccccc2)CC1 (stereo not given),3%,-8%
CCOC(=O)C[C@H]1c2cc(F)ccc2S(=O)(=O)N1c1ccccc1,-18%,-9%&-12%
CCc1cc2ccc(C)c(C)c2nc1SCC(=O)Nc1cc(C)on1,-1%,-14%
OC1CCC(NC(=S)Nc2ccc(SC(F)F)cc2)CC1 (stereo not given),i,-25%
CC[C@@H]1[C@H]2CCCC(=O)N3CC[C@@H](C[C@@H]1Nc1ccccc1)[C@@H]23,-17%&-6%,-9%&-24%
CC(C)=CCC/C(C)=C/CNC(=O)C[C@H]1C[C@H](C(=O)N2CCOCC2)[C@@]2(C)c3[nH]c4cc(CCC(=O)N(C)C)ccc4c3CCN2C1=O,u,-27%
C[C@@H]1[C@H]2[C@@H](O[C@@H]3O[C@H](CO)[C@@H](O)[C@H](O)[C@H]3O)OC=C(C(=O)O)[C@H]2C[C@@H]1O,20%,-12%
COc1ccc(-n2c(=O)c3c4c(sc3n(CC(=O)Nc3cc(C)[nH]n3)c2=O)CCCC4)c(OC)c1,-6%,-19%
CCn1c(SCC(=O)NCc2ccc3c(c2)OCO3)nnc1-c1ccncc1,u,-14%
N#C/C(=C\c1ccc(O)c(Br)c1)C(=O)N1CCCCC1,-23%,-12%
CCOP(=O)(OCC)C(NC(=O)c1ccc(OC)cc1)c1ccccc1 (stereo not given),i,-8%
CCN=c1scc(-c2ccc3c(c2)NC(=O)CO3)n1N=C1CCCC1,u,u
O=C(NCc1ccc(Cl)cc1Cl)Nc1nc([C@@H]2O[C@H](CO)[C@@H](O)[C@H](O)[C@H]2O)cs1,i,0%
Cc1ccc(S(=O)(=O)N2C[C@@H](C)[C@]3(C2)[C@H](O)[C@H](OC(=O)NC2CC2)C[C@H]2C(=O)N(c4ccccc4)C(=O)[C@H]23)cc1,i,-9%
COc1ccccc1NC(=O)c1ccc(-n2cccn2)c([N+](=O)[O-])c1,i,-13%
CCOc1ccc(NC(=O)c2cc(S(=O)(=O)N3CCCCCC3)cn2C)cc1,-6%,-7%
CCCN1CCN(CCCNC(=O)c2ccc3c(=O)n(CCc4ccccc4)c(=O)[nH]c3c2)CC1,-2%,-7%
CC(C)(C)C(O)C(Cc1ccccc1Cl)n1cncn1 (stereo not given),-2%,-13%
CCN1CCN(c2cc(C)c3cc(NC(=S)NCCN(C)C)ccc3n2)CC1,-28%,-30%
COc1ccc(CCNC(=O)C2CC(=O)N(CCc3ccccc3)C2)cc1OC (stereo not given),i,-3%&-11%
Cc1sc2ncnc(N3CCN(S(=O)(=O)c4ccc(F)cc4)CC3)c2c1C,i,0%

# Record cards, from the list above. Values in the order: Vaccinia mCherry	Vaccinia Venus
# O=C(NCc1ccc(Cl)cc1Cl)Nc1nc([C@@H]2O[C@H](CO)[C@@H](O)[C@H](O)[C@H]2O)cs1 in the list: i	0%
# S=C(NCC1CCCCC1)Nc1cccnc1 in the list: 0%	-14%

# Continued:
SMILES,Vaccinia mCherry,Vaccinia Venus
COc1ccc(-n2nc(C(=O)NCC(=O)NCc3ccc(F)cc3)c3ccccc3c2=O)cc1OC,-29%,u
O=C(NNC(=S)Nc1cccc(Cl)c1)c1ccccc1,-25%,-14%
CCOc1ccc(N(C)S(=O)(=O)c2ccc3[nH]cc(C(=O)NCc4ccccc4)c(=O)c3c2)cc1,-9%,3%
O=C(CN1CCN(c2ccccc2)CC1)Nc1ccc(-n2cnnn2)cc1,i,-9%
COc1ccc(OC)c2c1sc(=NC(=O)C(C)(C)C)n2C,u,u
COC(=O)c1sc(NC(C)=O)c(C(=O)OC)c1C,-14%,-5%
CCN(CC)CCNc1nc(SC)nc2sc3c(c12)CCN(C)C3,u,-10%
CCCCN=CC1=C(O)CC(c2ccccc2)CC1=O (stereo not given),-26%,-25%
O=C(CN1CCCCC1)Nc1cccc(Cl)c1Cl,i,0%
Nc1nc(N)nc(-c2cc(O)ccc2O)n1,-21%,-26%
COc1cccc(C(=O)NCC2CCCN2S(=O)(=O)c2ccccc2)c1 (stereo not given),i,-2%
O=Cc1ccccc1Oc1nc(N2CCOCC2)nc(N2CCOCC2)n1,-8%,-17%
CC1=C(C(=O)N2CCOCC2)C(c2c(F)cccc2F)NC(=O)N1 (stereo not given),i,-18%
CN1C(=O)N(CC(=O)Nc2cccc(S(=O)(=O)N(C)c3ccccc3)c2)C(=O)C12CCCCC2,-17%,-25%
COc1ccc(C2CC=C(C(C)=O)CN2S(=O)(=O)c2ccccc2)cc1 (stereo not given),-1%,-8%
CCc1ccc(N(CC(=O)NC2CCCCC2)S(=O)(=O)c2c(C)noc2C)cc1,6%,-3%
COc1ccc(OC)c(NC(=O)CSc2nnc(CNC(=O)COc3ccc(Cl)cc3)o2)c1,-6%,-17%
O=C1NC(c2ccccc2)(C(F)(F)F)C(=O)N1Cc1cccnc1 (stereo not given),x,-9%
COC(=O)c1ccc(NC(=O)CNC(=O)C2CCCCC2)cc1,0%,-18%
COc1ccc(OC)c(/C=N\NC(=O)c2c(C)nc3cc(C)ccn23)c1,-18%,-11%
COc1cc(CCC(=O)OCC(=O)N2CC(=O)Nc3ccccc32)cc(OC)c1OC,-25%,-23%
CNc1cc([N+](=O)[O-])ccc1N/C=C/C(=O)c1ccc2c(c1)OCO2,-2%,-4%
CN(NC(=O)c1c(Cl)cccc1Cl)c1cccc(Cl)n1,i,-2%
CCOc1ccc(NC(=S)N2CCN(C/C=C/c3ccccc3)CC2)cc1,u,u
CCc1nnc(NC(=O)c2cccc(S(=O)(=O)N3CCCCC3)c2)s1,-21%,-16%
CC1CCc2nc(N)c(C#N)c(-c3cccnc3)c2C1 (stereo not given),i,-8%
Cc1ccc(S(=O)(=O)N(C)C)cc1NC(=O)C(C)N(C)Cc1sccc1C (stereo not given),u,u
CS(=O)(=O)N(CC(=O)N1CCOCC1)c1ccc2c3c(cccc13)CC2,-7%,-3%
Cc1cccc(C)c1NC(=O)C1(NC(=O)Cn2cccc([N+](=O)[O-])c2=O)CCCCC1,i,-21%
CCOc1ccc(S(=O)(=O)N/N=C(\C)c2ccc(OC)cc2OC)cc1,-2%,-11%
CCCn1c(SCC(=O)N2CCCCC2)nnc1C(C)C,8%,1%
O=C1c2ccccc2NC(c2ccccc2)N1/N=C/c1ccccc1 (stereo not given),x,-28%
COc1cc(OC)c(S(=O)(=O)NCc2ccco2)cc1S(=O)(=O)NCc1ccco1,x,-8%
COc1ccc(-c2cc(-c3cccs3)c(C#N)c(SCC(=O)NCc3ccccc3)n2)cc1,-10%,-13%
N#Cc1cc2nc(O)c(O)nc2cc1[N+](=O)[O-],-15%,-11%
